Rango release inh = prevents RanGTP from dissociating the Rango-importin beta complex; Potency, µM (titrated, usually from 46.1 µM), without a hit: top-dose activity change, negative = inhibition; AID 540253; 340,000 compounds, 0.071% hits; Biochemical FRET Rango-importin beta, RanGTP-induced dissociation; O95149+P62826; active means falling FRET ratio curve, often poorly fitted, with flat reads before Ran was added; inconclusive means other falling curves, or compound fluorescence or quenching; inactive means flat or rising ratio curve;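 also: potency is read from the fitted curve at half-maximal effect; % of control where 0% means no effect; nearly all actives have a fitted effect of over 45% in size; -100% = wells without RanGTP and RCC1; the record marks most hits as doubtful in a second field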
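Two FRET readings bracket the reaction: one 5 min after compound meets Rango–importin beta, another 45 min after RanGTP-RCC1 (0.6 uM Ran, 0.2 uM RCC1, 2 mM GTP) is added. Only the second defines inhibition.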
Rango complex inh = Rango-importin beta binding inhibition; Q14974; Rango CFP/YFP FRET sensor + importin beta, 45 min; Potency, µM (titrated, usually from 92.2 µM), inactives show top-dose inhibition of complex formation; 340,000 compounds, 0.031% hits; active = rising FRET ratio curve, often small or poorly fitted; inconclusive = mostly compound fluorescence or quenching in the first reads; inactive = flat curves in all reads;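 also: potency is read from the fitted curve at half-maximal effect; 0% = DMSO wells and 100% = buffer wells lacking importin beta; nearly all actives have a fitted effect of over 15% in size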
Target sequence (Q14974 whole entry, looked up): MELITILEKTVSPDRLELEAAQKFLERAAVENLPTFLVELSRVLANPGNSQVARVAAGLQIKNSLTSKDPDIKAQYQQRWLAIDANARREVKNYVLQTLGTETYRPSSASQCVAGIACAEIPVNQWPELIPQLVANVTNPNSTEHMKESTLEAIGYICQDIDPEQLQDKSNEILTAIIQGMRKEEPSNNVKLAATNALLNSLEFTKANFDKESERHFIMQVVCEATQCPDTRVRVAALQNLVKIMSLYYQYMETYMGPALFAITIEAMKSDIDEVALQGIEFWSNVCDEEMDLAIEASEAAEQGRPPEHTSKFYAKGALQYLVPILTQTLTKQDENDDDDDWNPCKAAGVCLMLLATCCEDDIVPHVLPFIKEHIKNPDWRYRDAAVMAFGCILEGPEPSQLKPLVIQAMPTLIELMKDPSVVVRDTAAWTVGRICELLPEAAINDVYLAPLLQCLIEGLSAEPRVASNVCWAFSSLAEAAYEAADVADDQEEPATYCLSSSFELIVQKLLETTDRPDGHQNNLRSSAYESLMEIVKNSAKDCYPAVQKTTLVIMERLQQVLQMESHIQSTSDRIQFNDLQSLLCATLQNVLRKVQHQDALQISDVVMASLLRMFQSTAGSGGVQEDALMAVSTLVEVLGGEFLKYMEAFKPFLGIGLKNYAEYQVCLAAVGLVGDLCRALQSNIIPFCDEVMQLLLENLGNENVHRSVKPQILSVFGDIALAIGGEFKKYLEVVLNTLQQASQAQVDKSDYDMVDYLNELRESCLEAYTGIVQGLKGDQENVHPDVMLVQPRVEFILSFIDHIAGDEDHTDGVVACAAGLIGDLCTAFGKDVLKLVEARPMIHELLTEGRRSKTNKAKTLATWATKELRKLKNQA
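Inhibition scored from the CFP 486 nm/YFP 530 nm FRET ratio 45 min after adding 0.125 microM importin beta to 50 nM Rango biosensor preincubated 5 min with compound (room temperature, PBS with DTT, Tween-20, BSA). No-importin wells as positive control.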
GLA inh pH 4.5 = blocks human alpha-galactosidase A at pH 4.5; 230,000 tested, under 10 active; purified enzyme, 4-MU-alpha-Gal fluorescence, pH 4.5; AID 1467; activity change, negative = inhibition, % at 105 µM; P06280; inconclusive = small, poorly fitted or top-dose-only inhibition, or a rising curve; inactive = flat fitted curve, though single readings scatter; no compound was filed as active;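 also: 0% = full activity with enzyme and -100% = basal without enzyme; dose as in the result columns while the protocol names 77 µM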
miR-21 reporter = miR-21 reporter, rising signal; HeLa miR-21 FLuc reporter, luciferase, 48 h; Potency, µM (doses to about 38.3 µM), without a hit: top-dose reporter change, positive = more light; 340,000 tested, under 10 active; AID 2288; active = well fitted rising curve with a large enough effect; inconclusive = small, poorly fitted or top-dose-only effect; inactive = no such curve, though single readings can be large or run the other way;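 also: % of control where 0% means no effect; miR-21 action dims this reporter so a rising signal means less miR-21 action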
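Using DMEM plus 10% FBS, HeLa miR-21-FLuc cells are incubated with test compounds (final up to about 40uM) for 48 hours; firefly luciferase signal is then imaged following reagent-mediated lysis.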
The depositor's hits bear a star; ? = inconclusive; · = not tested or not shown.

canonical_smiles,Rango release inh,Rango complex inh,GLA inh pH 4.5,miR-21 reporter
Nc1cc(=O)[nH]c(SCC(=O)Nc2ccccc2Sc2ccccc2)n1,-4%,0.4%,2,5%
CC1C(=O)N2CCCc3cc(NC(=O)COc4ccccc4)cc1c32 (stereo unspecified),13%,0.4%,·,·
CC(C)c1csc(CN2CCC(n3nccc3NC(=O)Cc3ccccc3)CC2)n1,1%,-2.9%,·,14%
CC(NC(=O)C(C)N1C(=O)c2ccccc2C1=O)c1ccccc1 (stereo unspecified),-11%,1.2%,·,0%
CCc1cccc(NC(=O)C2CCCN(S(=O)(=O)c3c(C)[nH]c(=O)[nH]c3=O)C2)c1 (stereo unspecified),-10%,-4.1%,16,0%
O=C(Cn1cc(C(=O)C2CC2)c2ccccc21)Nc1ccc(F)cc1,-4%,3.3%,·,3%
O=[N+]([O-])c1ccccc1CSc1nnc2ccccn12,-7%,?,-9,-50%
NC(=O)c1nnn(-c2nonc2N)c1-c1ccc([N+](=O)[O-])cc1,-20%,-3.0%,-3,0%
O=C(Nc1cccc(Cl)c1)c1ccc2c(=O)n3c(nc2c1)CCCCC3,9%,2.9%,-1,15%
NC(=O)c1c(C(F)(F)F)cc(-c2ccccc2)nc1NCCO,-12%,-1.3%,-8,-2%
N#C/C(C(=O)NCc1ccccc1)=C1/N=C(NC(=O)c2ccco2)c2ccccc21,?,?,-12,-4%
NS(=O)(=O)c1ccc(CCNC(=O)CSc2nc3ccsc3c(=O)n2CC2CCC(C(=O)O)CC2)cc1 (stereo unspecified),24%,3.5%,-3,-4%
CC1(C)Cc2cccc(OCC(=O)Nc3cc(C(F)(F)F)ccc3N3CCOCC3)c2O1,-2%,3.4%,-1,1%
CCNC(=O)Nc1ccc(S(=O)(=O)Nc2cnc(C)nc2C)cc1,-14%,-3.6%,·,1%
CNc1nccc(-c2ccc(F)cc2)c1C#N,6%,1.1%,3,-6%
COCc1ccc(C(=O)N2CCCC(N(C)Cc3ccccc3)C2)s1 (stereo unspecified),9%,1.7%,·,-4%
c1cnc2ccc(C(c3nnnn3C3CCCC3)N3CCN(c4nc5ccccc5s4)CC3)cc2c1 (stereo unspecified),-7%,8.0%,-10,16%
Cc1ccccc1NC(=S)NCc1cccn1C,-10%,-0.5%,5,2%
O=C1N=c2ccccc2=C1c1sc(NS(=O)(=O)Cc2ccccc2)nc1O,?,-1.1%,-2,-1%
C/C(=N/NC(=O)CCC(=O)Nc1ccc(Br)cc1)c1ccc(Br)cc1,-11%,-1.4%,·,-18%
CN(C)c1ccc(C#Cc2ccc3cc(CCO)oc(=O)c3c2)cc1,?,?,·,·
CCCCNC(=O)COC(=O)c1ccc(C)c(NC(=O)c2ccco2)c1,-12%,-0.1%,3,0%
O=C(c1cccs1)N1N=C(c2ccccc2)CC1c1ccccc1O (stereo unspecified),9%,-0.9%,-7,-7%
CCc1ccc(NC(=O)c2sc3nc4n(c(=O)c3c2C)CCC4)cc1,-2%,1.2%,·,-31%
CC(Nc1ccc2c(c1)OCCO2)C(=O)N1CCc2ccccc21 (stereo unspecified),-3%,5.9%,6,-43%
COCCN1Cc2cccc(C(=O)NCc3cccnc3)c2C1=O,1%,0.0%,-5,-3%
CC1CCN(C(=O)COC(=O)c2cc(S(=O)(=O)N3CCOCC3)ccc2Cl)CC1,-9%,1.4%,·,·
CN1CCN(C(=S)Nc2ccc(Cl)c(Cl)c2)CC1,0%,0.2%,0,-1%
Cc1ccc(S(=O)(=O)CCSc2nc(C)cc(C(F)(F)F)c2C#N)cc1,13%,?,-11,-2%
CC1CC1C(=O)OCC(=O)NCc1ccccc1 (stereo unspecified),6%,2.3%,·,·
OC12CCCCC1C(c1ccc3c(c1)OCO3)N(Cc1cccc(F)c1)CC2 (stereo unspecified),20%,?,·,14%
CCc1ccc(OCCOCCN2CCN(C)CC2)cc1,-12%,3.2%,·,-3%
O=c1[nH]c(COc2ccccc2)nc2ccccc12,21%,0.3%,·,-13%
CCN(C(=O)CN1C(=S)NC(C)(C)CC1C)c1ccc(C)c(C)c1 (stereo unspecified),-8%,11%,-1,-3%
COc1cccc(OCCNS(=O)(=O)c2cccc([N+](=O)[O-])c2)c1,-12%,4.6%,4,-5%
CC(C)C[C@H]1CN=C(N(C)C)N1CC1CCCC1,3%,0.9%,·,·
CCN1CCSc2ccc(C(=O)NCc3cc(Br)ccc3OC)cc21,21%,1.8%,·,1%
COc1ccc(-n2nnc3c(=O)n(Cc4ccccc4C)cnc32)cc1,-1%,3.1%,1,-7%
CCOc1ccc(OCC(=O)Nc2ccc(OC)cc2)cc1,7%,-4.5%,5,-6%
N/C(Cc1ccc([N+](=O)[O-])cc1)=N\OC(=O)COc1ccccc1Cl,0%,0.3%,-1,-17%
O=C(c1ccccc1Cl)c1c(O)c2ccccc2oc1=O,13%,-0.8%,·,·
COc1cccc(-c2noc(CCCC(=O)N3CCOCC3)n2)c1,1%,-1.2%,5,-15%
Cc1ccc(-n2cnnn2)cc1Cl,14%,0.3%,-15,-8%
NC(=O)c1ccsc1NC(=O)c1cc(=O)c2ccccc2o1,9%,0.1%,7,-62%
Cc1ccc(C)c(S(=O)(=O)Nc2ccc(O)c(C(=O)O)c2)c1,-9%,7.3%,0,3%
COc1ccc(OC)c(NC(=O)COC(=O)Cc2ccc(-c3ccccc3)cc2)c1,-12%,8.0%,-3,-3%
Cn1c(=O)c(C=Nc2ccccc2)c(O)c2ccccc21,·,·,-12,-1%
C=CCOc1c(CNn2nnnc2N)cccc1OC,-3%,-1.1%,8,12%
CCNC(=S)N1CCC(n2cnc3ccccc32)CC1,-3%,2.9%,-7,2%
COc1ccccc1N1CCN(S(=O)(=O)c2ccc3c4c(cccc24)C(=O)N3C)CC1,·,·,0,-5%
CCC(C)(C)n1nnnc1C(c1cccnc1)N1CCCC(C)C1 (stereo unspecified),-21%,-3.9%,-2,0%
O=C(C1CCC(Cn2c(=S)[nH]c3ccccc3c2=O)CC1)N1CCN(c2ccccc2)CC1 (stereo unspecified),10%,-2.5%,·,·
CCn1cc(CN2CCN(Cc3ccc(OC)c(C)c3C)C(CCO)C2)c(C)n1 (stereo unspecified),1%,-0.2%,-1,0%
COc1cc2c(cc1OC)C(C(=O)N1CCCC1)C(c1ccccc1F)N(C)C2=O (stereo unspecified),-10%,0.3%,4,3%
CCCc1[nH]nc2c1C(c1ccc(OC(=O)c3ccco3)cc1)C(C#N)=C(N)O2 (stereo unspecified),-9%,13%,3,-1%
Cc1cccc(C(=O)Nc2sc(-c3ccccc3)cc2C(=O)O)c1,-22%,?,1,-26%
CCCN(CC(=O)Nc1ccc(F)c(F)c1F)C(=O)CCc1nc2ccccc2c(=O)[nH]1,-22%,-1.2%,·,·
CN(C)c1ccc(/C=C/C#N)cc1,0%,?,-4,-14%
CCn1ncc([N+](=O)[O-])c1C(=O)Nc1ccc(C)c(C)c1,-18%,-0.3%,·,-13%
COc1ccc(NC(=O)CN(C)C(=O)c2ccc(=O)[nH]c2)cc1,-16%,4.7%,·,7%

Complete entries, looked up by structure. Order of screens: Rango release inh, Rango complex inh, GLA inh pH 4.5, miR-21 reporter
Cc1ccc(C)c(S(=O)(=O)Nc2ccc(O)c(C(=O)O)c2)c1 is entered as -9%, 7.3%, 0, 3%
O=C(c1ccccc1Cl)c1c(O)c2ccccc2oc1=O is entered as 13%, -0.8%, ·, ·
O=c1[nH]c(COc2ccccc2)nc2ccccc12 is entered as 21%, 0.3%, ·, -13%

Remaining list, next part.
canonical_smiles,Rango release inh,Rango complex inh,GLA inh pH 4.5,miR-21 reporter
CCOc1ccc(/C=N/NC(=O)Cc2csc(Nc3cccc(C(F)(F)F)c3)n2)c(OCC)c1,0%,0.4%,2,0%
CCn1nnc(NC(=O)c2sc3ccccc3c2Cl)n1,1%,1.3%,5,-55%
CCN(CC)CCNC(=O)c1cc2c(=O)n(C)c3ccccc3c2n1C,8%,-1.2%,7,-11%
COC(=O)c1ccc(=O)n(-c2ccc(OC)cc2)c1,3%,8.3%,-6,-7%
O=c1c(-c2ccco2)[n+]([O-])c2ccccc2n1OCc1ccccc1[N+](=O)[O-],-25%,?,-1,-4%
COC(=O)c1ccc(-n2nnnc2SCC(=O)Nc2ccccc2F)cc1,17%,1.2%,·,-2%
Cc1cccc(N2CCN(S(=O)(=O)c3cccc4nonc34)CC2C)c1 (stereo unspecified),0%,0.1%,6,4%
C=CCN(CC=C)C(=O)COC(=O)c1ccc(Sc2ncn[nH]2)c([N+](=O)[O-])c1,15%,-3.5%,4,0%
COc1ccc(C2C(C(=O)NCc3ccccc3)=C(C)Nc3ncnn32)cc1OC (stereo unspecified),-7%,0.5%,-20,1%
Cc1ccccc1-n1c(=O)c2ccccc2n2cnnc12,-4%,0.0%,0,-20%
CCN(CC)C(=O)c1[nH]cnc1C(=O)N[C@@H](CCCCNC(=O)OC(C)(C)C)C(=O)OC(C)(C)C,-24%,2.8%,-1,-1%
CCOc1ccc(C(=O)Nc2cc(=O)n(C)c(=O)n2C)cc1,8%,-4.2%,·,·
COc1cccc2cc(C(=O)Oc3ccccc3)c(=O)oc12,0%,-2.0%,·,-5%
CC(=O)N1CCC2(CC1)CC(=O)c1cc(OCC(=O)N3CCOCC3)ccc1O2,-19%,-1.5%,7,0%
CCCCn1c(N)c(N(CC(C)C)C(=O)CSc2ccc3c(c2)OCCO3)c(=O)[nH]c1=O,-12%,-2.8%,·,·
CCN1CCN(C(CNS(=O)(=O)c2ccc(OC)cc2)c2cccnc2)CC1 (stereo unspecified),0%,-0.3%,8,1%
COc1ccc(CC(=O)N(Cc2ccccc2)C(C)C)cc1,-14%,1.6%,·,-4%
COc1ccc(-c2c3c(=O)n(C)c(=O)n(C)c3cn2NC(C)=O)cc1,9%,2.6%,3,-1%
O=C(COc1ccc(/C=N/NC(=O)c2ccccc2)cc1)Nc1ccc([N+](=O)[O-])cc1,-6%,2.4%,6,-9%
Cc1cc(=O)oc2cc(OCC(=O)OCC(=O)Nc3ccc4ccccc4c3)ccc12,11%,-1.4%,3,-12%
N#Cc1ccccc1CN1C(=O)c2ccccc2S1(=O)=O,0%,4.8%,·,1%
Cc1[nH][nH]c(=O)c1C=Nc1ccc(C(F)(F)F)cc1,-3%,-2.1%,-9,0%
O=[N+]([O-])c1ccc(OC(F)F)c(/C=N/n2cnnc2)c1,?,-1.2%,-3,0%
N#Cc1cccnc1N1CCN(C(=O)c2ccccc2)CC1,12%,0.4%,·,-4%
CN1CCN(NC(=O)c2cccs2)CC1,?,4.5%,-3,-1%
Cc1ccc(C(=O)Cn2nnc(-c3ccccc3)n2)cc1,10%,1.8%,-11,-3%
O=C1CC2(CCN(C(=O)COc3ccc(F)cc3)CC2)Oc2ccccc21,19%,-3.3%,·,·
O=C(COCc1cc(-c2ccc3c(c2)OCO3)on1)Nc1cccnc1Cl,1%,0.7%,·,-22%
COc1ccc(CNC(=O)c2ccc(CNc3c(NC4CCCCC4)c(=O)c3=O)cc2)cc1,6%,4.6%,-4,-9%

4 entries from above, as labelled records:
SMILES: Cc1ccccc1-n1c(=O)c2ccccc2n2cnnc12
  Rango release inh = -4%
  Rango complex inh = 0.0%
  GLA inh pH 4.5 = 0
  miR-21 reporter = -20%

SMILES: CCOc1ccc(C(=O)Nc2cc(=O)n(C)c(=O)n2C)cc1
  Rango release inh = 8%
  Rango complex inh = -4.2%
  GLA inh pH 4.5 = ·
  miR-21 reporter = ·

SMILES: Cc1ccc(C(=O)Cn2nnc(-c3ccccc3)n2)cc1
  Rango release inh = 10%
  Rango complex inh = 1.8%
  GLA inh pH 4.5 = -11
  miR-21 reporter = -3%

SMILES: N#Cc1cccnc1N1CCN(C(=O)c2ccccc2)CC1
  Rango release inh = 12%
  Rango complex inh = 0.4%
  GLA inh pH 4.5 = ·
  miR-21 reporter = -4%

Only part of the results is shown, so the mix of outcomes need not match the whole.
